Bioassay records as filed in PubChem BioAssay.
HSD17B inhib – qHTS Assay for Inhibitors of HSD17B4, hydroxysteroid (17-beta) dehydrogenase 4. 3-hydroxyacyl-CoA dehydrogenase type-2 (Homo sapiens), Q99714. recombinant HSD17B10, NADH fluorescence kinetic; many of its hits are not listed in these tables. Potency, µM (titrated, usually from 57.1 µM), for inactives: top-dose activity change, negative = inhibition, hits mostly inhibitors. 75,000 compounds, 7.6% hits. AID 893, 2007; active = well fitted inhibition curve with a large enough effect; inconclusive = small, poorly fitted or top-dose-only effect; inactive = no such curve, though single readings can be large or run the other way;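 also: the protocol describes HADH2 (HSD17B10) and not the HSD17B4 of the title; nearly all actives have a fitted effect of over 70% in size; most hits overshoot -100% by far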
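Enzyme plus compound, 15 min room temperature; substrate mix added (NAD+ 1 mM, beta-hydroxybutyryl-CoA 90 uM final); plates read kinetically for NADH fluorescence. HADH2 was His-tagged, E. coli-derived, 20 nM.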
Starred values were filed as active, the others as inactive; i = inactive; u = inconclusive; [ ] = another dose, or the depositor's remark. % is scaled to controls: 0 for no effect and ±100 for the full control effect; potency is read from the fitted curve at half-maximal effect. Some of the compounds tested. The share of hits here may be higher or lower than overall.

SMILES	HSD17B inhib
Cn1c(/C(C#N)=C/C2CC=CCC2)nc2ccccc21 (stereo not drawn)	0.6%
CCOC(=O)N1CCN(c2ncnc3c2oc2nc(CC(C)C)c4c(c23)CCC4)CC1	10.2%
CCc1ccc(Nc2ncc3c(n2)CC(c2ccco2)CC3=O)cc1 (stereo not drawn)	20µM*
COc1ccc(N2CCN(C(=O)c3sc4nc(-c5ccc(F)cc5)cn4c3C)CC2)cc1	-3.6%
CC1CCN(c2nc3c(c(=O)n(C)c(=O)n3C)n2CCSc2nc3ccccc3s2)CC1	10.9%
O=S(=O)(Nc1ccc2c(c1)OCCO2)c1cccc2cccnc12	-0.7%
Cc1nc2c(C(=O)O)cnn2c(C)c1Cc1ccccc1F	u
CCOC(=O)N1CCN(C(=O)C2CC(=O)N(Cc3ccc(OC)cc3)C2)CC1 (stereo not drawn)	2.2%
Cc1cc(-c2ccccc2)c(C#N)c(SCC(N)=O)n1	-3.8%
CCOc1ccc(N2CC(O)Cn3c2nc2c3c(=O)n(CCCc3ccccc3)c(=O)n2C)cc1 (stereo not drawn)	-7.8%
CC(C)=NOCc1ccc(-c2cn([C@@H]3COC[C@@H]3O)nn2)cc1	-3.5%[11.4 µM]
COc1ccccc1NS(=O)(=O)c1ccc2oc(SC3CCOC3=O)nc2c1 (stereo not drawn)	-12.0%
O=C(CSc1nnc(-c2cccnc2)n1C1CCCCC1)NC1CCCC1	9.0%
COCCn1nnnc1C(c1cc2cc(C)ccc2[nH]c1=O)N1CCN(C2CCCCC2)CC1 (stereo not drawn)	u
Cc1cccc(CSc2nnc(Cn3c(=O)sc4ccccc43)n2C)c1	4.5%
CCC(C)n1c(C)nc2c(c1=O)c1nc3ccccc3nc1n2-c1ccc2c(c1)OCCO2 (stereo not drawn)	16.4%
Cc1noc(/C=C/N(C)C)c1S(=O)(=O)N1CCCC(C(=O)NCc2ccccc2Cl)C1 (stereo not drawn)	-10.4%
O=C(O)CCCC(=O)N1CCc2cc(S(=O)(=O)N3CCc4ccccc43)ccc21	0.9%
Cc1cc(N2CCCc3ccccc32)n2ncnc2n1	-13.1%
COC(=O)c1ccc(C2C(C(=O)Nc3ccccc3C)=C(C)Nc3ncnn32)cc1 (stereo not drawn)	3.9%
O=C(CC(=O)c1ccccc1O)c1cccc(F)c1	0.6%
Cc1csc(C(C#N)C(=O)c2ccncc2)n1 (stereo not drawn)	u
Cc1ccccc1-c1ccc(C=Nc2c(C)n(C)n(-c3ccccc3)c2=O)o1	-20.5%
CC(=O)Nc1ccc(S(=O)(=O)Nc2nccc(C3Cc4ccccc4C(=O)O3)n2)cc1 (stereo not drawn)	-9.5%
O=C(OCc1cc2ccccc2[nH]c1=O)c1ccco1	-3.1%
CSc1nc(N)nc(SC2C=CCCC2)c1C#N (stereo not drawn)	-21.4%
O/N=C1/CCCCC1c1ccccn1 (stereo not drawn)	8.2%
COc1ccc2[nH]cc(CCNc3nc(-c4ccccc4OC)nc4ccccc34)c2c1	1.0%
CC(C)Cc1cc(C(=O)NCc2ccco2)no1	-0.6%
O=c1c2ccccc2ncn1-c1ccc2c(c1)OCCO2	13.3%
COCCNC(=O)CN(C)S(=O)(=O)c1ccc2c(c1)OCCO2	10.7%
CCn1cc(C(=O)N2CCc3ccccc32)c(=O)c2cc(S(=O)(=O)N3CCOCC3)ccc21	u
COCCn1c(=O)c(-c2ccc(OC)cc2)nc2cnc(Oc3cccc(Cl)c3)nc21	i
CCn1c2ccc(CC(=O)O)cc2c2cc(CC(=O)O)ccc21	25.1µM*
Cc1ccc(S(=O)(=O)n2nc(-c3ccco3)nc2SCc2ccccc2)cc1	3.4%
O=C(c1ccccc1)n1nc(-c2ccccc2)nc1NCc1ccco1	138.8%[activator]
O=C(CN1CCCCC1)Nc1ccc(S(=O)(=O)NC2CCCCC2)cc1	1.5%
COc1ccc(CN2C(=O)c3cccnc3C2Nc2cc(Cl)ccc2OC)cc1 (stereo not drawn)	-26.2%
COC(=O)c1cc(Br)c(=O)n(Cc2ccc(C(=O)O)cc2)c1	5.7%
Cc1noc(C)c1C(=O)N1CCN(c2ncccn2)CC1	-6.8%
CC(=O)N1CCc2cc(S(=O)(=O)CCC(=O)Nc3ccc4c(c3)OCCO4)ccc21	-2.1%
CCN(CCCNC(=O)C1CCN(S(=O)(=O)N2CCC3(CC2)OCCO3)CC1)c1ccccc1	-3.0%
Cc1cc2nnc(SCc3ccccc3)n2c(N)n1	-11.2%
CCn1cc(C(=O)N2CCOCC2)c(=O)c2cc(S(=O)(=O)N(C)C3CCCCC3)ccc21	-27.1%
CC(C)c1nc(SCC(=O)NCc2ccccc2)n[nH]1	10.0%
CCn1c(C(C)NC(=O)c2ccc(OC)c(OC)c2)nc2ccccc21 (stereo not drawn)	-5.0%
Cc1ccc(OCCCC(=O)Nc2ccc(N3CCOCC3)cc2)c(C)c1	-4.4%
CCSc1nc2c(c(=O)[nH]1)C(c1cccnc1)C(C(=O)OC(C)C)=C(C)N2 (stereo not drawn)	-3.1%
CN(C)CCCN1C(=O)C(=O)/C(=C(/O)c2ccc3c(c2)OCO3)C1c1ccccn1 (stereo not drawn)	5.4%
CCOC(=O)c1[nH]c(C)c(/C(C)=N\O)c1C	-4.4%
O=C(CN1C(=O)c2ccccc2C1=O)Nc1cccnc1	1.3%
Cc1oc(-c2cccc(Cl)c2)[n+]([O-])c1C	-2.1%
Cc1ccc(CCNC(=O)C2CCC(=O)N2C(C)C)cc1 (stereo not drawn)	1.4%
COc1ccc2[nH]cc(C(=O)CN3CCC(C)CC3)c2c1	10.9%
Cc1cc(C#N)c2ccccc2n1	11.2%
C/C(CCN1CCc2nc(-c3ccccc3)c(-c3ccccc3)cc2C1)=N\O[C@@H](C)c1cn([C@@H]2COC[C@@H]2O)nn1	2.4%[11.4 µM]
COC(=O)CC1C(=O)NCCN1C(=O)Nc1ccccc1 (stereo not drawn)	-3.8%
COC(=O)c1ccc(NC(=O)N2CCOCC2)cc1	-4.0%
Cn1c(=O)c2c(nc(CN3CCC(C(N)=O)CC3)n2Cc2ccccc2F)n(C)c1=O	2.1%
CCOC(=O)C1=C(C)NC(C)=C(C(=O)OCC)C1C(=O)OC1CCOC1=O (stereo not drawn)	u

(next part)
SMILES	HSD17B inhib
CC1CCCN(C/C(O)=C(\C#N)c2nc3ccccc3[nH]2)C1 (stereo not drawn)	0.6%
Cc1nn(Cc2ccccc2Cl)c(C)c1NC(=O)c1cc(-c2ccc(F)cc2)on1	-4.1%
CN1CCN(c2nc(-c3ccccc3C(F)(F)F)nc3ccccc23)CC1	1.2%
COc1ccccc1NS(=O)(=O)c1ccccc1C#N	4.6%
N#CC1=C(N)OC2=C(C(=O)CCC2)C1c1ccccc1 (stereo not drawn)	5.9%
CCOC(=O)c1sc(C)c2c1NC(C)(c1cccs1)NC2=O (stereo not drawn)	31.6µM*
COc1ccc(OC)c(CN2C(=O)CCC2(C)C(=O)NC2CCCCCC2)c1 (stereo not drawn)	2.3%
COC(=O)c1cccc(NC(=O)CSc2nnc(COc3cccc(C)c3)n2C)c1	0.0%
CCn1c(=O)cc(SCC(=O)NCc2ccco2)c2ccccc21	-6.7%
COc1ccc(-c2cc(C(F)(F)F)nc(SCC(=O)N3CCOCC3)n2)cc1OC	u
CC(C)(C)CC(C)(C)c1ccc(O)c(Cc2ccc(Cl)cc2Cl)c1	2.5%
CCOc1ccc(-n2nnc3c(=O)n(CC(=O)N4CCCc5ccccc54)cnc32)cc1	9.4%
COc1ccc(S(=O)(=O)Cc2ccc(C(=O)N3CCCC3)o2)cc1	5.1%
COc1ccc([N+](=O)[O-])c2c1CCN2C(=O)CC[C@H](N)C(=O)O	3.0%
COc1cc(NS(=O)(=O)c2ccc(Br)cc2)c(OC)cc1NC(=O)c1ccco1	-25.5%
CCOC(=O)c1csc(NC(=O)CSc2nnnn2-c2ccc(OCC)cc2)n1	3.2%
COCc1cc(C)nc(SCC(=O)Nc2cccc(C)c2)c1C#N	-21.5%
C[C@@H](C(=O)Nc1ccc2ccccc2c1)[C@H]1C[C@]1(C)[C@H](NC(=O)c1cccnc1)c1ccccc1	11.3%
CCCCCN(C(=O)NC(=O)Nc1ccccc1C)S(C)(=O)=O	5.0%
O=C(COC(=O)c1ccc[nH]c1=O)NCC1CCCO1 (stereo not drawn)	8.9%
Cc1ccc(S(=O)(=O)NCCC(=O)NCc2ccc3c(c2)OCO3)cc1C	-16.5%
CC(=O)NC(C)C12CC3CC(CC(CC(=O)O)(C3)C1)C2 (stereo not drawn)	-0.2%
CC(C)=CC(=O)NCCc1ccccc1	7.6%
O=C(CCN1C(=O)C2C3C=CC(C3)C2C1=O)Nc1ccc(F)cc1 (stereo not drawn)	-3.1%
COC(=O)c1cc(=O)c(O)c2c(O)c(O)ccc2c1	3.16µM*
COc1ccc(NS(=O)(=O)c2ccc(N)cc2)nn1	6.2%
CCC(OC(=O)C(NC(=O)c1ccccc1)c1ccccc1)C(=O)Nc1cc(C)on1 (stereo not drawn)	3.7%
ON1C(c2ccccc2C(F)(F)F)N(O)[C@H]2CCCC[C@H]21 (stereo partly drawn)	5.2%
CCOc1cc(C(=O)Nc2ccon2)cc(OCC)c1OCC	-3.4%
Cc1cc(C(=O)CSc2nnnn2-c2ccccc2)c(C)n1CC1CCCO1 (stereo not drawn)	7.9%
Cn1c(=N)n(CC(=O)C(C)(C)C)c2ccccc21	6.1%
NCC[C@H](N)C(=O)O	0.3%[11.4 µM]
Clc1ccc(NCn2cncn2)nc1	6.7%
CCc1ccccc1Nc1nc(N)nc(COC(=O)c2cccn2C)n1	1.3%
COc1ccc(C2SCC(=O)N2c2c(C)n(C)n(-c3ccccc3)c2=O)cc1 (stereo not drawn)	8.3%
COC(=O)CCn1nnc(-c2cccs2)n1	7.4%

Individual results from the results shown:
HSD17B inhib with NCC[C@H](N)C(=O)O reads 0.3%[11.4 µM]
HSD17B inhib with Clc1ccc(NCn2cncn2)nc1 reads 6.7%
HSD17B inhib with Cn1c(=N)n(CC(=O)C(C)(C)C)c2ccccc21 reads 6.1%
HSD17B inhib with COc1ccc(NS(=O)(=O)c2ccc(N)cc2)nn1 reads 6.2%
HSD17B inhib with CCC(OC(=O)C(NC(=O)c1ccccc1)c1ccccc1)C(=O)Nc1cc(C)on1 (stereo not drawn) reads 3.7%
HSD17B inhib with CCc1ccccc1Nc1nc(N)nc(COC(=O)c2cccn2C)n1 reads 1.3%

Later entries.
SMILES	HSD17B inhib
CCCCC1(C)NC(=O)N(CC(=O)Nc2ccc(S(=O)(=O)N3CCOCC3)cc2)C1=O (stereo not drawn)	9.8%
Cc1ccc(N(CC(=O)NCc2cccnc2)S(C)(=O)=O)cc1C	6.6%
CCOC(=O)c1cnn(-c2nc(C)cc(C)n2)c1N	-5.4%
C[C@@]1(C(NC(=O)c2ccc(-c3ccccc3)cc2)c2ccc(Cl)cc2)C[C@H]1C1CCCCC1 (stereo partly drawn)	-0.5%
O=C(NCC1CCCO1)c1csc2c1CCCCC2 (stereo not drawn)	4.6%
NS(=O)(=O)c1cc2c(cc1Cl)NC(CSCc1ccccc1)=NS2(=O)=O	0.5%
c1ccc(C(c2nnnn2C2CCCC2)N2CCCCCC2)nc1 (stereo not drawn)	u
CCOc1ccc(NC(=O)COC(=O)c2cccnc2)cc1	6.9%
c1ccc2c(-c3nnc4n3CCCCC4)c[nH]c2c1	3.1%
CC(C)N1C(=S)SC2CS(=O)(=O)C=C21 (stereo not drawn)	-6.6%
CCOc1ccccc1-c1nc(-c2ccc(C)nc2OC)no1	u
COc1ccc(-n2nnc3c(=O)n(CC(=O)N4CCC(Cc5ccccc5)CC4)cnc32)cc1	7.8%
O=c1c2ccccc2nc(-c2ccco2)n1Cc1ccccc1	-14.4%
CC(=O)NCC(=O)NC(C(=O)Nc1ccc2c(c1)OCCO2)c1ccccc1 (stereo not drawn)	-7.3%
O=S(=O)(NCc1cccnc1)c1ccc(Br)s1	-1.9%
Cc1ccc(OCC(O)Cn2c(NCCc3ccccc3)nc3c2c(=O)[nH]c(=O)n3C)cc1 (stereo not drawn)	3.5%
COc1cc2ccc([C@H](C)NCC#N)cc2cc1OC	-10.3%[11.4 µM]
O=C(NCc1cccnc1)C1CCCN(S(=O)(=O)c2ccc(Br)cc2)C1 (stereo not drawn)	-3.3%
CCC(C)(C)n1nnnc1C(c1cc(OC)c(OC)c(OC)c1)N1CCN(c2ccccc2)CC1 (stereo not drawn)	-5.1%
COc1cc2c(cc1OC)C(C(=O)Nc1cccc(C)n1)C(c1cccnc1)N(C)C2=O (stereo not drawn)	2.2%
COc1cc(OC)cc(C2C(C#N)=C(N)Oc3n[nH]c(-c4cccnc4)c32)c1 (stereo not drawn)	-1.6%
O=C(CC1NC2CCCCC2NC1=O)Nc1ccc2c(c1)OCO2 (stereo not drawn)	-0.4%
CCOC(=O)C1(CCSC)NC(c2ccco2)C2C(=O)N(CC)C(=O)C21 (stereo not drawn)	8.7%
c1coc(CNC2CCCCCCC2)c1	-1.4%

In the list so far, these contain a COOH group:
SMILES	HSD17B inhib
Cc1nc2c(C(=O)O)cnn2c(C)c1Cc1ccccc1F	u
O=C(O)CCCC(=O)N1CCc2cc(S(=O)(=O)N3CCc4ccccc43)ccc21	0.9%
CCn1c2ccc(CC(=O)O)cc2c2cc(CC(=O)O)ccc21	25.1µM*
COC(=O)c1cc(Br)c(=O)n(Cc2ccc(C(=O)O)cc2)c1	5.7%
COc1ccc([N+](=O)[O-])c2c1CCN2C(=O)CC[C@H](N)C(=O)O	3.0%
CC(=O)NC(C)C12CC3CC(CC(CC(=O)O)(C3)C1)C2 (stereo not drawn)	-0.2%
NCC[C@H](N)C(=O)O	0.3%[11.4 µM]
